D2 agonist: activates the human D2 dopamine receptor. activation, % (no concentration beside the values). DiscoveRx PathHunter D2 beta-arrestin, luminescence, 90 min; 100% = 57 uM dopamine signal. 360,000 compounds, 0.084% hits; in the data active = activation above about 40%; inconclusive = about 15% to 40%; inactive = below about 15%; further: compound concentration not given in the record; the text of the record calls up to 30% inactive
Target sequence (P14416 whole entry, looked up): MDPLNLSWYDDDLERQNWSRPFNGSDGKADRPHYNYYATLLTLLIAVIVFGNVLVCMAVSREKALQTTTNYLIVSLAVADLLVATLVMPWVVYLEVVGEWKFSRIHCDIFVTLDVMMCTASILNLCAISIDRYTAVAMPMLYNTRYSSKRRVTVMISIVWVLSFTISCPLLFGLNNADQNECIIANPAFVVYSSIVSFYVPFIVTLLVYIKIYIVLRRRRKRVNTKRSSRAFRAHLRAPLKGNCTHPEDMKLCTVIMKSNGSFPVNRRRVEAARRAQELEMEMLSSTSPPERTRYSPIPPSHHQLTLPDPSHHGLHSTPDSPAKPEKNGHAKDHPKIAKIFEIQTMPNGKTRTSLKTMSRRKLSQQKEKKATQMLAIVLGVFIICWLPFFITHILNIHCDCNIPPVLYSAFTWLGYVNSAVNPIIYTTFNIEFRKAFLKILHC
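Agonist mode: compounds alone added to overnight-plated D2 PathHunter cells for 90 min at 37 C, with 57 uM final dopamine (EC100) defining full response. Beta-arrestin recruitment detected by chemiluminescent reagent, read after 1 h at ambient temperature.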
PINK1 modulator: changes PINK1 expression. 410,000 compounds, 0.2% hits. Potency, µM (titrated, usually from 76.6 µM), for inactives: at the highest dose activation (PINK1 increase), most hits filed as activators. PINK1 immunofluorescence, high-content cytometry, 24 h; active = well fitted activation curve with a large enough effect; inconclusive = small, poorly fitted or top-dose-only effect; inactive = flat fitted curve, though single readings scatter; cell line not stated here;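 further: potency means the concentration at half of the fitted maximal effect; % of control where 0% means no effect; nearly all actives have a fitted effect of over 65% in size; a mitochondrial uncoupler was the plate control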
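Compound titrations (5 concentrations, 24 h) on a stable cell line; DMSO and CCCP controls. Endpoint: fixed-cell PINK1 immunofluorescence with mitochondrial, cell and nuclear markers, scanned by microplate cytometer.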
TRPML1 blocker: inhibitors of human TRPML1 channel; 390,000 compounds, 0.02% hits; activity change, negative = inhibition, % (no concentration beside the values); TRPML1-inducible cells, Ca2+ dye fluorescence, FDSS; hits give low values; inhibition of EC80 agonist-evoked calcium signal; in the data active means activity change below about -50%; inconclusive means about -30% to -50%; inactive means above about -30%;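 further: stimulus is agonist 54-4 at its EC80 concentration; on the % scale 0 is the no-effect control and ±100 the full control effect; compound concentration not given in the record; the text of the record puts the active cut at -80%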
Target sequence (Q9GZU1 whole entry, looked up): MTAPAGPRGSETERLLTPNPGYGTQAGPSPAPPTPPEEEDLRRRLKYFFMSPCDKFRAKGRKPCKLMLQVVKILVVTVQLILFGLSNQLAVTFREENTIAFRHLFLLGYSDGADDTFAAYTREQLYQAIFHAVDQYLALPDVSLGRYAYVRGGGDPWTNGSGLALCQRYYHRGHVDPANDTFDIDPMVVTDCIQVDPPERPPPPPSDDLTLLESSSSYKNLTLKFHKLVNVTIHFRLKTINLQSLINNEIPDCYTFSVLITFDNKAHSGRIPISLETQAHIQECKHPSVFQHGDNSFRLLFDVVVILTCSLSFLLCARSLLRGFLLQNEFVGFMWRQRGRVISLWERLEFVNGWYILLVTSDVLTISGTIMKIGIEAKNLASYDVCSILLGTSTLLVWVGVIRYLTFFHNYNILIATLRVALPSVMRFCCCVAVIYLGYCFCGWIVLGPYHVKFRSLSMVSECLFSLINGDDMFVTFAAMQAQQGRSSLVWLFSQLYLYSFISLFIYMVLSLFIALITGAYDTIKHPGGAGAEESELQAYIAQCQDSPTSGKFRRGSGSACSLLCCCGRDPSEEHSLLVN
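Tet-induced TRPML1-DL cells loaded with Ca8 no-wash calcium dye were read kinetically on FDSS. Compound addition was followed by EC80 agonist 54-4 (4 uM final); inhibition was read over 110 s.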
Six1-Eya2 blk: Six1/Eya2 interaction inhibition; Q15475+O00167; AlphaScreen GST-Six1/His-Eya2 binding, biochemical; hits give low values; control for the full effect not named in the record; activity change, % (no concentration beside the values); 360,000 compounds, 0.56% hits; AID 651725; in the data active = activity change below about -65%; inconclusive = about -30% to -65%; inactive = above about -30%; further: on the % scale 0 is the no-effect control and ±100 the full control effect
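AlphaScreen with GST-Six1 and His-Eya2 (5X mix: 250 nM and 500 nM), glutathione donor and nickel acceptor beads; buffer 50 mM Tris pH 8.0, 300 mM NaCl, 1 mM TCEP; 1 h at 37 C in the dark.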
D2 PAM: human D2 receptor positive allosteric modulation. potentiation, % (no concentration beside the values). 360,000 compounds, 0.23% hits. DiscoveRx D2 beta-arrestin cells, luminescence, 90 min; 100% = 57 uM dopamine signal; active = potentiation of 50% or more; inconclusive = 30% to 50%; inactive = 30% or less;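 further: compound concentration not given in the record; tested on top of an EC20 dose of dopamine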
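PathHunter beta-arrestin assay in DiscoveRx D2 cells. Compounds were added with an EC20 of dopamine (50 nM final) for 90 min at 37 deg C. Luminescence was read 1 h after detection reagent, with 57 uM dopamine as the EC100 control.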
TRPML1 agonist: agonists of human TRPML1 channel; AID 624414; TRPML1-expressing cells, Ca2+ dye fluorescence, FDSS; host cell line not named in the record; reference of the full effect not given here; 410,000 compounds, 0.12% hits; Q9GZU1; activation, % (no concentration beside the values); in the data active = activation above about 50%; inconclusive = about 30% to 50%; inactive = below about 30%; further: 0% is about no effect; the text of the record puts the active cut at 80%
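Calcium fluorescence on an FDSS kinetic reader gave the read-out. Tet-induced TRPML1-DL cells were plated overnight, dye-loaded (Ca8 with quencher, 45-90 min, room temperature, dark), then read 110 s after compound addition, and again 110 s after 4uM final 54-4 (EC80).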
* hit, by the source's call; ? = inconclusive; nt = not tested or not shown; & = joins results of further samples; [ ] = dose if it differs, or a comment.

SMILES | D2 agonist | PINK1 modulator | TRPML1 blocker | Six1-Eya2 blk | D2 PAM | TRPML1 agonist
Cc1cc(-c2ccccc2)c2ccc(NC(=O)C(C)(C)C)nc2n1 | -0.8 | 3.2% | 6 | -3 | -2 | 13
CC1CCN(C(=O)COC(=O)c2ccc(Cl)nc2)CC1 | -1.8 | 0.8% | 10 | 9 | -2 | 0.0
CCOc1cc(/C=N/Nc2nc(-c3cccc(S(=O)(=O)N4CCCC4)c3)cs2)ccc1O | ? | 6.4% | -11 | ? | 119* | -2.0
CCOC(=O)Cc1csc(NC(=O)Nc2ccc(Cl)cc2)n1 | 2.5 | 1.4% | -7 | -17 | 1 | -0.3
COC(=O)c1ccccc1NC(=O)Cn1cnc2c(cnn2-c2ccccc2)c1=O | 0.0 | 5.6%[38.3 µM] | -11 | -1 | -2 | 1.7
COc1cccc(-c2nnc(SCC(=O)Nc3cc(C)ccc3OC)n2N)c1 | -1.4 | -3.2% | -6 | 5 | -17 | -0.1
O=C(COc1ccc(/C=C2/NC(=O)NC2=O)cc1)Nc1ccc(F)cc1 | -7.6 | 0.6% | -6 | -19 | -6 | 0.0
O=c1[nH]c(SCc2cccc(Cl)c2)nc2c1CCCC2 | 4.1 | 2.7%[38.3 µM] | 15 | 3 | -6 | 0.5
CSc1cccc(NC(=O)c2ccc(CN3CCc4ccccc4C3)cc2)c1 | 1.0 | -0.7% | -11 | 1 | -23 | -0.6
COc1ccc(CNC(=O)[C@@H](NC(=O)C2CCN(S(=O)(=O)c3ccccc3)CC2)C(C)C)cc1 | 1.2 | 6.2% | 5 | 0 | 10 | -1.0
O=C(NCCc1ccc(Cl)cc1)C1CCCN1C(=O)Nc1ccccc1 (stereo not given) | -4.0 | -0.9% | -11 | -2 | -59 | -0.8
Nc1ncnc2c1ncn2Cc1ccccc1 | 4.0 | 2.4% | 10 | 5 | ? | 4.2
COc1cc(NC(=O)c2ccc(Br)cc2)ccc1NC(=O)c1cc2ccccc2o1 | -5.5 | 1.3% | -1 | -21 | -10 | 0.5
O=C(COC(=O)c1n[nH]c(=O)c2ccccc12)Nc1cccc(S(=O)(=O)N2CCOCC2)c1 | -1.8 | 2.5% | 38 | -7 | 1 | 0.8
Cc1ccc(CNC(=O)Cn2nnc(C(=O)Nc3cccc(C)c3C)c2N)cc1 | 1.9 | 7.1% | 8 | 0 | -4 | 0.0

3 structures out of the list, sorted by molecular weight, ascending:
SMILES | D2 agonist | PINK1 modulator | TRPML1 blocker | Six1-Eya2 blk | D2 PAM | TRPML1 agonist
Nc1ncnc2c1ncn2Cc1ccccc1 | 4.0 | 2.4% | 10 | 5 | ? | 4.2
Cc1cc(-c2ccccc2)c2ccc(NC(=O)C(C)(C)C)nc2n1 | -0.8 | 3.2% | 6 | -3 | -2 | 13
COc1cc(NC(=O)c2ccc(Br)cc2)ccc1NC(=O)c1cc2ccccc2o1 | -5.5 | 1.3% | -1 | -21 | -10 | 0.5

Back to the main list, repeating the two entries before the break.
SMILES | D2 agonist | PINK1 modulator | TRPML1 blocker | Six1-Eya2 blk | D2 PAM | TRPML1 agonist
O=C(COC(=O)c1n[nH]c(=O)c2ccccc12)Nc1cccc(S(=O)(=O)N2CCOCC2)c1 | -1.8 | 2.5% | 38 | -7 | 1 | 0.8
Cc1ccc(CNC(=O)Cn2nnc(C(=O)Nc3cccc(C)c3C)c2N)cc1 | 1.9 | 7.1% | 8 | 0 | -4 | 0.0
Cc1c(Br)c([N+](=O)[O-])nn1C(C)C(=O)Nc1nccs1 (stereo not given) | 2.0 | 2.9%[38.3 µM] | -1 | -16 | 8 | 1.7
COc1nc(C)cc(C)c1S(=O)(=O)c1ccccc1 | -6.7 | 1.6% | 7 | 14 | -4 | 2.1
COc1ccc(NC(=O)C2CCN(c3nc(-c4ccc(OC)c(OC)c4)no3)CC2)cc1Cl | nt | 0.0% | -9 | nt | nt | 0.6
N#CCCn1cc(/C=C2\NC(=S)N(c3ccccc3)C2=O)c(-c2ccc(-c3ccccc3)cc2)n1 | -3.1 | 4.8% | -5 | -12 | -27 | -0.6
C[C@H](O)[C@@H]1CN2CCc3c([nH]c4ccccc34)[C@@H]2C[C@@H]1N(C)C(=S)NCCc1ccccc1 | 3.8 | 2.1% | nt | -15 | -10 | -0.6
CCn1cc(S(=O)(=O)c2cc(C)cc(C)c2)c(=O)c2cc(F)c(N3CCCC3)cc21 | nt | 14% | -6 | nt | nt | 1.9
C=CCn1c(SCCOc2ccccc2)nnc1C(C)NC(=O)c1ccccc1 (stereo not given) | -3.9 | nt | -9 | -4 | -1 | 0.5
O=C(NC1CCCCC1)N(CCN1CCOCC1)Cc1cc2cc3c(cc2[nH]c1=O)OCCO3 | -3.6 | 4.0%[38.3 µM] | 6 | 2 | -12 | -1.0
O=C(Cc1cccc(F)c1)Nc1ccc2c(c1)CCC2 | 0.3 | 5.1% | 8 | 8 | -4 | 1.7
Cc1nc([N+](=O)[O-])cn1CC(O)c1ccc(Cl)cc1 (stereo not given) | -1.5 | 0.1% | 12 | -2 | -17 | -0.3
CC1CC(C)CN(CCCNC(=O)c2nn(C)c3c2CS(=O)(=O)c2ccccc2-3)C1 (stereo not given) | -0.9 | 4.1% | -17 | 0 | -17 | -0.3
CCCCn1cc(S(=O)(=O)c2ccc(CC)cc2)c(=O)c2cc(F)c(N3CCCC(C)C3)cc21 (stereo not given) | nt | -1.9% | -1 | nt | nt | 0.5
O=C(CCN1C(=O)CSC1=O)Nc1ccc(Br)cc1 | -4.3 | 4.5% | -20 | 0 | 1 | -0.2
CCOC(=O)N1CCN(S(=O)(=O)c2cccc3nonc23)CC1 | -6.3 | -2.9% | -20 | 2 | -12 | 0.8
Cc1cccc(NC(=O)CN2CCN(C(=O)c3cncn3-c3ccc(F)cc3)CC2)c1C | 2.4 | -0.3% | 3 | 5 | -2 | 0.6

Structures above that bear a hit mark in D2 PAM:
compound	D2 agonist	PINK1 modulator	TRPML1 blocker	Six1-Eya2 blk	D2 PAM
CCOc1cc(/C=N/Nc2nc(-c3cccc(S(=O)(=O)N4CCCC4)c3)cs2)ccc1O	?	6.4%	-11	?	119*

(cont.)
SMILES | D2 agonist | PINK1 modulator | TRPML1 blocker | Six1-Eya2 blk | D2 PAM | TRPML1 agonist
CON(C)c1nc(OCCNC(=O)OCc2ccc(Cl)cc2C)nc(N(C)C)n1 | -0.7 | 10% | 0 | 5 | -2 | 0.0
COc1ccc(N(CC(=O)NCc2cccs2)S(=O)(=O)c2cccnc2)cc1 | -3.0 | -0.5% | -8 | 10 | -1 | 0.3
COc1ccccc1-c1cccc([C@@H]2C[C@H]3[C@H](CON3C)CN2C(=O)CCc2ccccc2)c1 | -0.8 | -0.2% | -4 | -13 | nt | -0.3
Cc1ccc(S(=O)(=O)N(CCO)Cc2ccccc2)cc1 | 4.3 | -0.2% | -7 | 10 | -1 | -0.2
Cc1[nH]c2ccccc2c1C(=O)CN1CCC(C(N)=O)(N2CCCCC2)CC1 | -1.7 | 0.2% | 6 | 7 | -5 | -0.8
CC(/C=N/n1c(-c2cc(C)[nH]n2)n[nH]c1=S)=C\c1ccccc1 | 0.7 | 3.1% | 2 | -17 | -21 | 1.6
Cc1cccc(NC(=S)N2CCC(c3nc4ccccc4o3)CC2)c1C | 0.2 | -2.3%[38.3 µM] | -3 | -3 | -4 | 0.5
CCCCn1cnc2sc3c(c2c1=N)CCCC3 | -2.0 | -0.7% | -5 | 3 | -3 | 0.2
CS(=O)(=O)NCc1nnc(SCC(=O)NC2CCCCC2)n1-c1ccc(F)cc1 | -6.2 | 0.4% | 6 | -2 | -24 | 0.5
O=[N+]([O-])c1ccc(NCCCO)c(C(F)(F)F)c1 | -2.6 | 0.5% | -7 | 5 | 3 | -0.4
CC(=O)c1cccc(NS(=O)(=O)c2c(C(=O)N3CCOCC3)c(C)n(C)c2C)c1 | -1.9 | 1.0% | -1 | -1 | 5 | -0.7
COc1ccc(-n2c(-c3ccc(C(C)(C)C)cc3)n[nH]c2=S)c(OC)c1 | -3.0 | 3.8% | 13 | -12 | -19 | -0.5
CCOc1nc(C)ccc1-c1noc(-c2cccnc2)n1 | -0.7 | -0.6% | -3 | -2 | -8 | -0.2
C/C=C(\C)c1nnc(NC(=O)C(C)C)s1 | -2.1 | -0.9% | 6 | 0 | -10 | -0.2
COc1ccc(C(=O)Nc2oc(-c3ccccc3)c(-c3ccccc3)c2C#N)cc1OC | -1.1 | nt | 25 | -17 | 9 | 1.5
COc1cccc(C(C)(O)c2nc(-c3ccc(Cl)cc3)cs2)c1 (stereo not given) | 12 | 3.2% | nt | 7 | -3 | -0.3
O=C(COC(=O)C1CCN(S(=O)(=O)c2cccc3cccnc23)CC1)c1ccc([N+](=O)[O-])cc1 | 5.5 | 2.0% | 1 | -7 | ? | 0.3
COc1cc(C2CC(=O)N3CN(Cc4ccco4)CSC3=C2C#N)ccc1OCc1ccccc1 (stereo not given) | -4.7 | -1.4% | 1 | 4 | -12 | -0.4
CCCCCC(=O)NN=C1CCN(Cc2ccccc2)CC1 | -6.0 | 1.6% | -3 | 0 | -2 | -1.7
Cc1cc(C(F)(F)F)c(C#N)c(N2CCOCC2)n1 | -2.2 | 1.0% | 6 | -3 | -2 | -0.5
Cc1ccc(C(=O)N/N=C/c2cccc3ccccc23)cn1 | 2.1 | 3.0% | 24 | -2 | -9 | 0.6
CC(=O)Nc1ccc(S(=O)(=O)N(c2cccnc2)S(=O)(=O)c2ccc(NC(C)=O)cc2)cc1 | 0.0 | 7.1%[38.3 µM] | -2 | 1 | -8 | 0.3
CC1CCC(NC(=O)CSc2ccc(S(=O)(=O)N(C)C)cn2)CC1 (stereo not given) | -8.8 | 0.7% | -11 | 3 | -11 | -0.3
COc1ccccc1C1CCN(C(=O)c2cccs2)CC1 | 3.4 | 0.2% | -20 | 3 | -6 | 1.5
Cc1ccc(C(=O)N(CN2CCCC2=O)c2ccc(F)cc2)cc1C | -1.1 | -3.9% | -3 | 0 | -1 | -0.5
COC(=O)CCCC(=O)OC | -6.9 | -0.1% | nt | 10 | -24 | nt
Oc1c(C(Nc2nc3ccccc3s2)c2ccco2)ccc2cccnc12 (stereo not given) | 2.5 | -2.0% | 12 | -73* | 20 | 1.3
O=C(NCCCn1ccnc1)c1ccccc1Br | -4.1 | -0.8% | -16 | 2 | -11 | 0.9
Cc1ccc(Cl)cc1NC(=O)COC(=O)C12CC3CC(CC(C3)C1)C2 | 0.4&-2.3 | -1.2% | 18&71 | 6&2 | -2&-22 | -1.1&1.6
c1nc(NCCN2CCOCC2)c2c3c(sc2n1)CCCCC3 | -0.8 | -1.8% | -25 | -1 | 6 | 1.8
N#CC1=C(N)Oc2n[nH]c(-c3ccc(F)cc3)c2C1c1ccncc1 (stereo not given) | -10 | -0.3% | -14 | 6 | -2 | 0.0
O=C(CN1CCCCCC1)N1c2ccccc2Sc2ccccc21 | 6.3 | 0.1% | -3 | -12 | -20 | -0.1
COc1ccc(S(=O)(=O)N2CCCCC2)cc1NC(=O)c1c(F)cccc1Cl | -5.2 | 6.9% | -9 | 5 | 9 | 1.5

Screening data as filed in PubChem BioAssay.
